Assay outcomes as filed in PubChem.
S aureus helic: blocks Staphylococcus aureus DNA helicase | purified S. aureus helicase, fluorescence unwinding assay; about half of the hits fall short of the stated cut | hit rate 0.05% among 120,000 | AID 485395 | inhibition, %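 (tested at about 80 µM)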;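 active = both duplicates at 50% or more, or one of them with a favoured structure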;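 also: 0% = mean of negative control wells and 100% = mean of positive control wells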
MgrA DNA FP: S. aureus MgrA-DNA binding modulation | fluorescence polarization | hit rate 0.13% among 84,000 | inhibition, %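 (about 10 µg/mL by stock and volumes)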;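 active = above 50% in either of two replicates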;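 also: 0% = protein plus DNA without compound and 100% = DNA alone without protein; higher means less MgrA bound to DNA so lower polarization; one replicate is shown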
* marks the source's active call; other numbers are inactive results; nt = not tested or not shown; & = joins results of further samples. Some of the compounds tested; the hit share may differ from the screen's.

Below each compound – S aureus helic	MgrA DNA FP
1. N#CCn1c(CN2CCOCC2)nc2ccccc2c1=O
    -12.0	nt
2. CCC(C)c1ccc(S(=O)(=O)N2CCN(C(C)CC(=O)O)CC2)cc1 (stereo not drawn)
    -9.0	nt
3. O=c1c2snc(-c3ccc(Cl)cc3)c2ncn1C1CC1
    3.0	-3.3
4. CC(=O)Nc1ccc(NC(=O)Oc2ccccc2)cc1
    1.0	nt
5. O=C(c1cc2c(Cl)nc3ccccc3c2s1)N1CCCC1
    8.0	0.3
6. COC(=O)C(NC(=O)Nc1ccccc1OC)C(C)C (stereo not drawn)
    -9.0	nt
7. Oc1c(C=Nc2cccnc2)sc2ccccc12
    nt	-0.7
8. COc1ccc(-c2ocnc2C(=O)NC2CCCc3ccccc32)cc1 (stereo not drawn)
    4.0	nt
9. CCOC(=O)/C(C#N)=C/C1=C(N)CC(C)(C)OC1
    5.0	0.5
10. CC1CCCCN1CCNc1nc(=S)[nH]c2ccccc12 (stereo not drawn)
    9.0	0.5
11. CC1CCC(C(=O)NC(C(=O)N2CCC(N3CCCCC3)CC2)C(C)C)CC1 (stereo not drawn)
    0.0	nt
12. Cc1cc(=O)cc(C)n1-c1ccccc1
    -5.0	-1.7
13. Cc1cccc(N2CCN(C(=O)C(NC(=O)c3c(F)cccc3F)C(C)C)CC2)c1C (stereo not drawn)
    7.0	nt
14. CC(=O)N1CC(C(=O)NC2CCCCCC2)Oc2ccccc21 (stereo not drawn)
    2.0	nt
15. C/C(CCc1oc2ccccc2c1-c1ccc(C)o1)=N\O
    -2.0	2.8
16. Cc1cc(C)n(C(=O)CC#N)n1
    21.0	-1.5
17. O/N=C1\CCCc2ccccc21
    nt	0.2
18. N#Cc1c(C(F)(F)F)cc(-c2ccccc2)nc1SCC(N)=O
    -36.0	nt
19. O=C1CC(c2ccc3c(c2)OCO3)CC2=C1C(c1ccncc1)Nc1ccccc1N2 (stereo not drawn)
    -3.0	3.2
20. Cc1ccc(CC(=O)OC(C)C(N)=O)cc1C (stereo not drawn)
    -6.0	nt
21. CCNC(=O)C1CCCN1S(=O)(=O)c1ccc(C)cc1 (stereo not drawn)
    -3.0	0.8
22. CCOP(=O)(c1ccccc1)C1(O)CCCCC1 (stereo not drawn)
    26.0	3.5
23. O=C1NC2(CCCCC2)N(C(=O)c2ccccc2F)C2=C1CCCC2
    4.0	nt
24. COc1cc2ncc(C(=O)c3ccccc3)c(N3CCOCC3)c2cc1OC
    10.0	nt
25. COC(=O)c1sccc1NC(=S)OC
    nt	0.7
26. Cc1cccc(OCC(=O)Nc2ccc(CN3CCOCC3)cc2)c1C
    -20.0	0.6
27. Fc1ccc(C=Nc2ccc(-n3cccc3)cc2)cc1
    nt	2.8
28. CC1(C)OC(=O)N(Nc2ccccc2)C1(C)O (stereo not drawn)
    8.0	-1.2
29. Nn1c(-c2ccccn2)nnc1-c1ccccn1
    1.0	1.4
30. COC(=O)c1sc(NC(=O)CN2CCCCC2C)c(C(=O)OC)c1C (stereo not drawn)
    20.0	5.2
31. COc1ccc(-c2csc(NCc3ccccc3)n2)cc1
    12.0&1.0	-3.5&-1.9
32. O=C(NCCCN1CCOCC1)c1ccc(NC(=O)c2ccccc2)cc1
    10.0	0.5
33. CCCCC#Cc1ccc(C(=O)NNC(=O)Nc2ccc(OC(F)(F)F)cc2)o1
    nt	2.8
34. COc1ccc(N(/N=C2\Sc3ccccc3C2=O)C(C)=O)cc1
    28.0	nt
35. CCCN(CCC)C(=O)/C=C/c1cc(OC)c(OC)c(OC)c1
    15.0	-0.2
36. CCN(CC)C(=O)c1c(-c2ccccc2)oc2ccc(O)cc12
    -8.0	nt
37. Cn1c(-c2ccncc2)n[nH]c1=S
    nt	-2.1
38. CC(C)=C(NC(=O)c1ccccc1)C(=O)N(C)C
    5.0	-1.2
39. N#Cc1ccccc1NC(=O)c1cc(=O)c2ccccc2o1
    13.0	nt
40. c1ccc(OCCCn2cnc3ccccc32)cc1
    -5.0	5.8
41. NN1C(=O)NC2(CCCCC2)C1=O
    8.0	nt
42. CC(C)[C@H](NC(=O)c1cccc(S(=O)(=O)N2CCOCC2)c1)C(=O)Nc1nc2ccccc2s1
    -7.0	nt
43. COC(=O)c1sccc1Oc1ccc(C(F)(F)F)cc1NS(=O)(=O)c1ccc(F)cc1
    nt	-6.7
44. CCN(C(=O)Cn1c(=O)oc2cc(S(=O)(=O)N3CCCC3)ccc21)c1ccccc1
    8.0	-0.4
45. CCCn1c(=O)cc(N)n(-c2ccc(OC(F)(F)F)cc2)c1=O
    nt	0.7
46. COC(=O)c1c(NC(=O)CCC(=O)O)sc2c1CCCC2
    15.0	nt
47. Clc1ccc(-c2noc(CSC3=NCC4CCCC4N3)n2)cc1 (stereo not drawn)
    nt	-2.3
48. CCOc1ccc2nc(SCC(=O)O)oc2c1
    2.0	-7.8
49. N#C/C(=C\c1ccccc1F)c1ccccc1
    1.0	-1.1
50. CC(c1nnc(-c2cccs2)o1)N1CCC(Cc2ccccc2)CC1 (stereo not drawn)
    -7.0	nt
51. Cn1cnc2cc(NCc3ccccc3Cl)ccc21
    7.0	nt
52. O=C(OCC(=O)N1CCN(c2ccccc2)CC1)C1=COCCO1
    -12.0	nt
53. CCOC(=O)c1c(NC(=O)c2ccc(Cl)c([N+](=O)[O-])c2)sc(C(=O)Nc2cc(C(F)(F)F)ccc2Cl)c1C
    nt	-1.5
54. CCC(C)NC(=O)COc1ccc(C(C)(C)c2ccccc2)cc1 (stereo not drawn)
    12.0	1.5
55. CSC1=NC2(C)CCCCC2C12C=CC(=O)C=C2 (stereo not drawn)
    16.0	nt
56. CCCN1C(=O)/C(=c2\sc3n(c2=O)C(c2cccs2)C(C(=O)OC)=C(C)N=3)c2ccccc21 (stereo not drawn)
    nt	-2.1
57. Cc1nc(C)c(C(=O)O)c(-c2ccsc2)c1C(=O)O
    nt	-0.4
58. COC(=O)CNc1cn[nH]c(=O)n1
    -9.0	2.1
59. COC(=O)c1ccc(Cn2c[n+](N)cn2)cc1
    -13.0	1.1
60. Cc1nc2cc(C(=O)Nc3ccc(Cn4ccnc4)cc3)ccc2n1-c1ccccc1
    -19.0	nt

Other results.
Below each compound – S aureus helic	MgrA DNA FP
61. Cc1nc(-c2ccccn2)nc(NCCNc2ccc(C(F)(F)F)cn2)c1Cl
    nt	-1.7
62. O=C(NCc1ccc2c(c1)OCO2)C(F)(F)F
    3.0	-0.8
63. COc1ccc(OC)c(C(=O)c2coc3ccc(O)cc23)c1
    -4.0	1.4
64. CCc1ccc(CN(C)C(=O)c2ccc3c(c2)OCCO3)cc1
    10.0	nt
65. CNC(=S)N(Cc1cc2ccc(OC)cc2[nH]c1=O)C1CCCC1
    1.0	-0.1
66. O=C(c1cc(-c2ccccc2)on1)N1CCCc2ccccc21
    6.0	-1.1
67. COc1ccccc1NCC(=O)n1nc(C)cc1C
    -21.0	nt
68. CC1CC(CCC(=O)NC(=S)Nc2ccc(S(N)(=O)=O)cc2)C(=O)O1 (stereo not drawn)
    -22.0	nt
69. COc1cc(C)c(CSCC(=O)O)cc1OC
    -9.0	nt
70. NNC(=O)c1nc(-c2cccc(-n3cccc3)c2)no1
    23.0	nt
71. N#Cc1nc(-c2ccc(F)cc2)oc1NC1CCCCC1
    4.0	4.4
72. C[N+](C)(C)CCC(O)c1ccccc1 (stereo not drawn)
    5.0	-0.1
73. CCOCCOC(=O)C1=C(C)NC2=C(C(=O)CC(c3ccc(OC)cc3)C2)C1c1cccc2ccccc12 (stereo not drawn)
    nt	-2.4
74. CCOC(=O)C1=C(C)N(C(C)=O)C(SC)=NC1c1ccccc1 (stereo not drawn)
    nt	-3.1
75. CCOC(=O)N1CCN(C(=O)CN2C(=O)/C(=C/c3ccc(OCC)cc3)SC2=S)CC1
    8.0	nt
76. Cc1ccc(C(=O)COC(=O)c2ccc(Br)cn2)cc1
    -6.0	nt
77. Cc1cc(C)cc(NC(=O)C2CCCN(S(=O)(=O)c3c(C)noc3C)C2)c1 (stereo not drawn)
    22.0	nt
78. Cc1ccc(C(C)C)cc1OCCN
    -2.0	-3.4
79. CC(CCc1ccccc1)NC(=O)CSc1cn[nH]n1 (stereo not drawn)
    9.0	0.5
80. COc1ccc(C(C(=O)NCc2ccccc2)N(Cc2ccco2)C(=O)c2cnccn2)cc1 (stereo not drawn)
    1.0	0.2
81. COc1ccc(C(C)=O)cc1CS/C(=N/S(=O)(=O)c1ccccc1)Nc1cccc(F)c1
    nt	-3.7
82. COC(=O)Cn1c(C(=O)OC)cc2c1ccn2-c1ccc(F)cc1
    -3.0	0.1
83. CC1CCc2c(sc(NC(=O)CSc3ncn[nH]3)c2C#N)C1 (stereo not drawn)
    nt	-0.5
84. CC(C)(C)c1cc2n(n1)C1=NCCN1C=N2
    nt	-1.6
85. OC1(c2ccc(Br)cc2)NN=C2CCCCCN21 (stereo not drawn)
    23.0	nt
86. Cc1ccc(Cn2cnc3ccccc32)cc1
    9.0	nt
87. CCOc1ncccc1C(=O)OCC(=O)N1C(C)CCCC1C (stereo not drawn)
    -15.0	nt
88. CC(C)Oc1ccc(C(F)(F)F)cc1NC(=O)C1CC1
    4.0	2.8
89. CCOc1ccc(NC(=O)N2CCCC(CN3CCc4ccccc4C3)C2)cc1 (stereo not drawn)
    3.0	1.8
90. O=c1n(-c2ccccc2)c(=O)n2n1C1C=CC2C1
    nt	1.2

Compounds listed so far containing bromine (2):
Below each compound – S aureus helic	MgrA DNA FP
76. Cc1ccc(C(=O)COC(=O)c2ccc(Br)cn2)cc1
    -6.0	nt
85. OC1(c2ccc(Br)cc2)NN=C2CCCCCN21 (stereo not drawn)
    23.0	nt

(next part)
Below each compound – S aureus helic	MgrA DNA FP
91. COc1ccccc1NCCC(=O)O
    -9.0	-0.4
92. CCCOc1ccc2oc(=O)c3c(c2c1)CCCN3C(=O)CN1CCCc2ccccc21
    13.0	0.8
93. Cc1ccc(NC(=O)CSC2CC(=O)N(c3ccccc3)C2=O)c(Cl)c1 (stereo not drawn)
    nt	-2.4
94. O=C1OCCC1Sc1nc2sccc2c(=O)n1-c1ccccc1 (stereo not drawn)
    7.0	nt
95. COC(=O)c1cc(C(=O)OC)cc(N2Cc3nccnc3C2=O)c1
    11.0	0.7
96. CC(C)=CC(=O)N1CCCc2ccccc21
    5.0	0.0
97. O=C(Oc1ccc(-c2nnco2)cc1)c1cc(-c2ccccc2)nn1-c1ccccc1
    -3.0	nt
98. CCOC(=O)N1CCN(C(=O)c2c[nH]c3ccc(S(=O)(=O)N(CC)CC)cc3c2=O)CC1
    5.0	nt
99. Cc1nn(-c2ccccc2)c2nc(Cl)c(C3N=C(N)Nc4nc5ccccc5n43)cc12 (stereo not drawn)
    3.0	nt
100. N#Cc1ccc(Sc2ccc(Cl)cc2)nc1
    nt	-1.1
101. O=C(OCCO)c1cc(Cl)c(C(=O)OCCO)cc1Cl
    14.0	0.3
102. COc1ccc(CNC(=O)C(OC(C)=O)c2ccccn2)cc1 (stereo not drawn)
    -1.0	-0.6
103. COc1ccc(-n2nnc3c(=O)n(C/C=C/c4ccccc4)cnc32)cc1
    14.0	nt
104. COc1ccc(C(=O)NCCn2cc(SCC(=O)N3CCCCC3)c3ccccc32)cc1
    8.0	-0.2
105. C=CCNc1nc(NC2CCN(C(=O)OCC)CC2)nc(OCC)n1
    9.0	nt
106. CN(C)c1ccc(/C=C/C(=C(C#N)C#N)C2CC2)cc1
    -89.0	10.4
107. CCOc1ncccc1C(=O)Nc1cc(Cl)ccc1N1CCOCC1
    24.0	nt
108. Cc1ccc(C#N)c(SCCCn2c(=O)[nH]c3ccccc32)n1
    10.0	nt
109. NC(=S)c1cnccc1C(F)(F)F
    nt	0.2
110. CCOC(=O)c1ccc(NC(=S)NC(=O)c2ccccc2)cc1
    nt	-0.5
111. O=C(Oc1ccc(Cl)c2cccnc12)N1CCCCC1
    0.0	nt
112. CC(C)N(C(=O)CSc1ccccc1Cl)c1ccccc1
    -25.0	1.3
113. C=CCn1nnc2sc3c(c2c1=O)CCC(C)C3 (stereo not drawn)
    -11.0	nt
114. CCC(C)Sc1sc(C(=O)O)c(-c2ccc(Cl)cc2)c1C#N (stereo not drawn)
    nt	2.0
115. CC(C)(O)CC[C@@H](O)[C@](C)(O)C1CC[C@@]2(O)C3=CC(=O)C4CC(O)C(O)CC4(C)C3CCC12C (stereo partly drawn)
    5.0	nt
116. CC1CCN(c2nc3c(c(=O)n(C)c(=O)n3C)n2Cc2cccc(Br)c2)CC1
    nt	-3.6
117. Cc1onc(-c2ccccc2)c1C(N)=O
    nt	5.1
118. CC(C)(C)NC(=O)c1ccc2c(c1)CCO2
    nt	0.2
119. O=C(Cn1ncc2c1-c1ccccc1OC2)NC1CC1
    14.0	nt
120. CCC(=O)N1N=C(c2c(-c3ccccc3)c3cc(Cl)ccc3[nH]c2=O)CC1c1ccco1 (stereo not drawn)
    14.0	1.4

An excerpt of these results, with the structure last:
no.	S aureus helic	MgrA DNA FP	molecule
104	8.0	-0.2	COc1ccc(C(=O)NCCn2cc(SCC(=O)N3CCCCC3)c3ccccc32)cc1
105	9.0	nt	C=CCNc1nc(NC2CCN(C(=O)OCC)CC2)nc(OCC)n1
106	-89.0	10.4	CN(C)c1ccc(/C=C/C(=C(C#N)C#N)C2CC2)cc1
107	24.0	nt	CCOc1ncccc1C(=O)Nc1cc(Cl)ccc1N1CCOCC1

Continued:
Below each compound – S aureus helic	MgrA DNA FP
121. CC1CCCCN1S(=O)(=O)c1ccc(S(=O)(=O)NCc2ccc3c(c2)OCO3)cc1 (stereo not drawn)
    11.0	4.3
122. Cc1noc(C)c1C(=O)O/N=C(\N)c1ccc(OC(F)(F)F)cc1
    -6.0	nt
123. Cc1ccc(N2CC(NS(=O)(=O)N(C)C)CC2=O)cc1C (stereo not drawn)
    -8.0	nt
124. NC(=O)c1ccsc1NC(=O)CSc1nc(-c2ccccc2)cs1
    -9.0	nt
125. O=C(c1cccc(Cl)c1)N1CCNCC1
    2.0	-6.1
126. CCOC(=O)c1ccccc1NC(=O)CCN1C(=O)c2ccccc2C1=O
    16.0	nt
127. CNc1ccccc1C(=O)OCC(=O)c1ccccc1
    14.0	0.4
